Compound activity (PubChem BioAssay)
ClpP mod: qHTS Assay for Activators of ClpP | ATP-dependent Clp protease proteolytic subunit (Bacillus subtilis (strain 168)), P80244 | purified B. subtilis ClpP, FRET peptide cleavage, 20 min | Potency, µM (doses to about 57.5 µM), for the others: top-dose activity change, negative = active | hit rate 1.9% among 340,000 | AID 651965, 2013; active = well fitted falling curve with a large enough effect; inconclusive = small, poorly fitted or top-dose-only effect; inactive = no such curve, though single readings can be large or run the other way; also: potency is read from the fitted curve at half-maximal effect; the source files actives as falling curves though it sought activators and does not explain the sign; nearly all actives have a fitted effect of over 65% in size; many hits overshoot -100%
Target sequence (P80244 whole entry, looked up): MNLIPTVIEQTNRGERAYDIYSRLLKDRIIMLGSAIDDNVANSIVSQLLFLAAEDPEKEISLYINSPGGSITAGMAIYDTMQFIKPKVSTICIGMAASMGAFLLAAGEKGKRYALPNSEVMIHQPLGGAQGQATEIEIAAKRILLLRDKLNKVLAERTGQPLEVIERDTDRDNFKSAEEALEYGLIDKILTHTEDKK
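Buffer: 100 mM Tris/HCl pH8, 100 mM KCl, 0.05% low protease BSA, 2.5% glycerol, 0.01% Tween-20. ClpP 10 microg/mL final; 20 min RT; delta FRET normalized to ADEP and DMSO controls.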
Menin-MLL FL inh: qHTS Assay for Inhibitors Targeting the Menin-MLL Interaction in MLL Related Leukemias: Competition With Fluorescein Labeled MLL-derived Peptide; Fluorescence polarization, fluorescein-MLL peptide displacement from menin; FP activity change, % at 61.4 µM; 290,000 tested, under 10 active; AID 1766, 2009; inconclusive = falling polarisation curve, or a change in total fluorescence; inactive = total fluorescence flat and polarisation flat or rising; no compound was filed as active; the % refers to the polarisation; negative = inhibition;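 also: % of control where 0% means no effect; inhibitors lower the polarisation; unlabelled MLL peptide was the positive control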
Sfp inh: qHTS Assay for Inhibitors of Bacillus subtilis Sfp phosphopantetheinyl transferase (PPTase) | hit rate 3.5% among 310,000 | Biochemical Sfp PPTase activity, qHTS | AID 1490, 2009 | Potency, µM, for inactives: max response, negative = inhibition, most hits filed as inhibitors; active = well fitted inhibition curve with a large enough effect; inconclusive = small, poorly fitted or top-dose-only effect, or another doubt; inactive = no such curve, though single readings can be large or run the other way;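 also: the enzyme is Sfp with the accession as filed and its product quenches rhodamine fluorescence; potency is read from the fitted curve at half-maximal effect; 0% = enzyme reaction without inhibitor and -100% = no enzyme wells; top concentration of the series not given in the record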
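Buffer: 50 mM Hepes-Na pH 7.6, 10 mM MgCl2, 0.01% Nonidet P-40, 0.01% BSA. Enzyme 15 nM, pre-exposed to compound 15 min; substrates then added and fluorescence change tracked over 30 min.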
TRPV1 PAM: HTS Assay for Compounds that Act as Potentiators of the Vanilloid Receptor 1 | Transient receptor potential cation channel subfamily V member 1 (Homo sapiens), Q8NER1 | TRPV1-expressing cells, Fluo-8 calcium influx, capsaicin EC20 potentiation; host cell line not named in the record; control for the full effect not named in the record | potentiation, % at 8.33 µM | hit rate 0.02% among 320,000 | AID 540277, 2011; active means potentiation above 80%; inconclusive means 30% to 80%; inactive means below 30%; also: 0% is about no effect
Target sequence (Q8NER1 whole entry, looked up): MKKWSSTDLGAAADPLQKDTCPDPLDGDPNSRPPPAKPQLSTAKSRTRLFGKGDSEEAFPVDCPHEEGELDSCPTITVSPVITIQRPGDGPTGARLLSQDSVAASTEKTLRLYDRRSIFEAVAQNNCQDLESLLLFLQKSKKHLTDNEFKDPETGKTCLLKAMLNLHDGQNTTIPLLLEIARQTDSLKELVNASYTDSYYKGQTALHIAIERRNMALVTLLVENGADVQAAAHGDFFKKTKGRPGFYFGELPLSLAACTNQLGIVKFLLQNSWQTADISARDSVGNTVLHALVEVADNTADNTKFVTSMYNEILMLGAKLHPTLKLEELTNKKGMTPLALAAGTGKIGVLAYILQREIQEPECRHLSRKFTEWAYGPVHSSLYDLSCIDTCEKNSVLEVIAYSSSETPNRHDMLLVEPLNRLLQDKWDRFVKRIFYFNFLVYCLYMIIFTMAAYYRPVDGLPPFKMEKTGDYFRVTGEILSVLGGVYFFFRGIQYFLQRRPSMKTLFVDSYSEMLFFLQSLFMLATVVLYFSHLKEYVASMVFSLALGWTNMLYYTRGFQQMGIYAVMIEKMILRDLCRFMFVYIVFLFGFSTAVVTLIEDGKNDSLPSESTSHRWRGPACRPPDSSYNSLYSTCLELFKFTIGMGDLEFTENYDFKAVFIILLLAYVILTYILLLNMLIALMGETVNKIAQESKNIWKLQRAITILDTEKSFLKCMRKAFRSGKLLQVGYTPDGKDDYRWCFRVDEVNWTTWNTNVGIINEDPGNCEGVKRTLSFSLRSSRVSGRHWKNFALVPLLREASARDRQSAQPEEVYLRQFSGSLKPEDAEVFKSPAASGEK
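Cells expressing TRPV1 were dye-loaded with Fluo-8 and read kinetically: 10 s baseline, 3 min after compound (agonist portion), then 2 min after EC20 capsaicin (allosteric enhancer portion). Calcium-bound dye fluorescence at 480/520 nm.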
gsp ag: qHTS for Agonist of gsp, the Etiologic Mutation Responsible for Fibrous Dysplasia/McCune-Albright Syndrome: qHTS; gsp mutant cells, cAMP HTRF, 30 min; control for the full effect not named in the record; Potency, µM (top dose mostly 76.9 µM), for inactives: top-dose activation (cAMP increase), usual class: activators; hit rate 0.13% among 340,000; active = well fitted activation curve with a large enough effect; inconclusive = small, poorly fitted or top-dose-only effect, or another doubt; inactive = no such curve, though single readings can be large or run the other way; cell line not stated here;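 also: phosphodiesterase inhibitor Ro 20-1724 added with compounds to block cAMP breakdown; potency is read from the fitted curve at half-maximal effect; nearly all actives have a fitted effect of over 60% in size; about a fifth of the inactives were tested at one dose only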
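Cells in DMEM/10% FBS with G418 were pretreated with compounds in DMSO plus […] (300 uM stock) for 30 min at 37C. cAMP was measured by HTRF (cAMP-d2 plus anti-cAMP antibody-K) after 30 min at room temperature.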
CtBP-E1A blk: qHTS Assay for Inhibitors of the CtBP/E1A Interaction | AlphaScreen GST-E1A/His-CtBP binding, 1536-well; active compounds read low; control for the full effect not named in the record | activity change, % (test concentration not listed) | hit rate 0.49% among 340,000 | AID 651724, 2012; in the data active means activity change below about -65%; inconclusive means about -30% to -65%; inactive means above about -30%; also: % is scaled to controls: 0 for no effect and ±100 for the full control effect
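GST-E1A and His-tagged CtBP (125 nM each as 5X stock) were preincubated with pin-transferred compound for 2 h at 37 °C in the dark, then glutathione donor and nickel acceptor beads were added for 1 h before AlphaScreen reading.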
gsp antag: qHTS for Antagonists of gsp, the Etiologic Mutation Responsible for Fibrous Dysplasia/McCune-Albright Syndrome: qHTS; Potency, µM (doses to about 76.9 µM), inactives show top-dose activity change, negative = inhibition, hits mostly inhibitors; hit rate 0.4% among 340,000; gsp-mutant cells, cAMP HTRF, 30 min; control for the full effect not named in the record; active = falling curve of any shape with a large fitted effect; inconclusive = falling curve, mostly with a smaller effect; inactive = flat or rising curve; cell line not stated here;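 also: intracellular cAMP measured with PDE inhibitor Ro 20-1724 present during compound exposure; potency is read from the fitted curve at half-maximal effect; % is scaled to controls: 0 for no effect and ±100 for the full control effect; nearly all actives have a fitted effect of over 65% in size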
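HTRF cAMP read-out (cAMP-d2 plus anti-cAMP antibody-K in lysis buffer, 30 min RT). Before lysis, cells are exposed to compounds with […] for 30 min at 37C in DPBS containing Ca/Mg, BSA and Tween 20.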
An asterisk follows results filed as active; & = joins results of further samples; [ ] = dose if it differs, or a comment. Compounds were not picked by outcome. Share with any hit: about 5.3%.

Preview:
How did COc1ccc(/C=N/NC(=O)c2cccnc2)cc1CSc1ccccn1 do in these assays?
Menin-MLL FL inh: 6.6; Sfp inh: 24%; TRPV1 PAM: -21; gsp ag: -33%[inhibitor]; CtBP-E1A blk: -10; gsp antag: 1%

How did O=C(NCCC1CCCC1)C1CCC(=O)N(CCCN2CCCC2=O)C1 (configuration not stated) do in these assays?
ClpP mod: -0.8%; Menin-MLL FL inh: 0.0; Sfp inh: 17%; TRPV1 PAM: -8; gsp ag: -14%; CtBP-E1A blk: -3; gsp antag: 13%

Results for Cc1noc(C)c1NC(=O)Nc1ccc2c(c1)CC(=O)N([C@H](C)CO)C[C@@H](C)[C@H](CN(C)CC1CCCCC1)O2 ?
ClpP mod: -2.3%; gsp ag: -4%; CtBP-E1A blk: -9; gsp antag: 5%

Results for Cc1c(NC(=S)NC(=O)c2sc3ccccc3c2Cl)cccc1C(=O)O ?
ClpP mod: -3.7%; Menin-MLL FL inh: 1.7; Sfp inh: -15%; TRPV1 PAM: 12; gsp ag: inconclusive; gsp antag: inconclusive

All compounds of this part, from the start:
How did COc1ccc(/C=N/NC(=O)c2cccnc2)cc1CSc1ccccn1 do in these assays?
Menin-MLL FL inh: 6.6; Sfp inh: 24%; TRPV1 PAM: -21; gsp ag: -33%[inhibitor]; CtBP-E1A blk: -10; gsp antag: 1%

How did O=C(NCCC1CCCC1)C1CCC(=O)N(CCCN2CCCC2=O)C1 (configuration not stated) do in these assays?
ClpP mod: -0.8%; Menin-MLL FL inh: 0.0; Sfp inh: 17%; TRPV1 PAM: -8; gsp ag: -14%; CtBP-E1A blk: -3; gsp antag: 13%

Results for Cc1noc(C)c1NC(=O)Nc1ccc2c(c1)CC(=O)N([C@H](C)CO)C[C@@H](C)[C@H](CN(C)CC1CCCCC1)O2 ?
ClpP mod: -2.3%; gsp ag: -4%; CtBP-E1A blk: -9; gsp antag: 5%

Results for Cc1c(NC(=S)NC(=O)c2sc3ccccc3c2Cl)cccc1C(=O)O ?
ClpP mod: -3.7%; Menin-MLL FL inh: 1.7; Sfp inh: -15%; TRPV1 PAM: 12; gsp ag: inconclusive; gsp antag: inconclusive

How did Cc1ccccc1CCNC(=O)c1cc(C2CC2)nc2c1cnn2C(C)C do in these assays?
ClpP mod: 3.4%; TRPV1 PAM: -7; gsp ag: 18%; CtBP-E1A blk: 22; gsp antag: inconclusive

Results for Cc1cc(C)n(-c2nc(NCC(C)O)c3c4c(sc3n2)COC(C)(C)C4)n1 (configuration not stated) ?
ClpP mod: 28µM*; Menin-MLL FL inh: -2.6; Sfp inh: 8%; TRPV1 PAM: -19; gsp ag: 3%; CtBP-E1A blk: -4; gsp antag: 11%

Results for N#Cc1ccccc1NC(=S)NC(=O)c1cccs1 ?
ClpP mod: -7.1%; Menin-MLL FL inh: -3.5; Sfp inh: 32µM*; TRPV1 PAM: -6; gsp ag: inconclusive; gsp antag: 11%

What do the screens show for `O=C1C(Cc2ccccc2)Nc2ncnc(N3CCCCC3)c2N1Cc1ccc(Br)cc1` (configuration not stated)?
ClpP mod: -6.7%&-0.2%; CtBP-E1A blk: -15&15; gsp antag: 0%

How did O=C(CCc1nc2ccccc2s1)N1CCN(S(=O)(=O)c2cccs2)CC1 do in these assays?
ClpP mod: -1.1%; Menin-MLL FL inh: -1.3; Sfp inh: inconclusive; TRPV1 PAM: 3; gsp ag: -56%[inhibitor]; CtBP-E1A blk: 5; gsp antag: -10%

What do the screens show for `CCOC(NC(=O)c1ccccc1)C(NC(=O)c1ccccc1)OCC` (configuration not stated)?
ClpP mod: -1.2%; Menin-MLL FL inh: 1.6; Sfp inh: 19%; TRPV1 PAM: 0; gsp ag: -1%; CtBP-E1A blk: 6; gsp antag: 11%

What do the screens show for `CNC(=O)Cn1c(C)cc(=O)c2cccc(OC)c21`?
ClpP mod: 1.6%; Menin-MLL FL inh: -1.9; Sfp inh: 11%; TRPV1 PAM: 28; gsp ag: -8%[15.4 µM]; CtBP-E1A blk: 4; gsp antag: 11%

What do the screens show for `CCOC(=O)N1CCC(N(C(=O)Nc2ccc(CC)cc2)C(C)CC)CC1` (configuration not stated)?
ClpP mod: -0.9%; Menin-MLL FL inh: 2.1; Sfp inh: 9%; TRPV1 PAM: -7; gsp ag: -1%; CtBP-E1A blk: 13; gsp antag: 4%

What do the screens show for `CC1CCCC(NC(=O)COC(=O)COc2cccc(F)c2)C1C` (configuration not stated)?
gsp ag: 0%; CtBP-E1A blk: 5; gsp antag: 10%

What do the screens show for `CCCCn1cnc2c(c(CC#N)nn2-c2ccccc2)c1=N`?
ClpP mod: -1.2%; gsp ag: -10%; CtBP-E1A blk: 0; gsp antag: -5%

What do the screens show for `CCC(=O)Nc1ccc2c(c1)ncn2C`?
ClpP mod: -0.8%; Menin-MLL FL inh: 4.4; Sfp inh: 17%; TRPV1 PAM: 0; gsp ag: 13%; CtBP-E1A blk: 5; gsp antag: 2%

How did O=C(Nc1ccccc1-c1ccccc1)c1cccs1 do in these assays?
Menin-MLL FL inh: 1.3; Sfp inh: -4%; TRPV1 PAM: 18; gsp ag: -3%[15.4 µM]; CtBP-E1A blk: 16; gsp antag: 6%

What do the screens show for `COc1ccccc1NC(=O)C1CCCN1C(=O)NCc1ccccc1` (configuration not stated)?
ClpP mod: -4.0%; Menin-MLL FL inh: 1.3; Sfp inh: 15%; TRPV1 PAM: 27; gsp ag: 29%; CtBP-E1A blk: -11; gsp antag: -1%

What do the screens show for `O=C(O)C1CC=CCC1C(=O)Nc1ccccc1Cl` (configuration not stated)?
ClpP mod: -2.4%; Menin-MLL FL inh: 67[activator]; Sfp inh: -13%; TRPV1 PAM: 0; gsp ag: -2%; CtBP-E1A blk: 8; gsp antag: -2%

Results for CC(=O)c1ccc(Cc2cnc(N)s2)cc1 ?
ClpP mod: -0.4%; Menin-MLL FL inh: 1.8; Sfp inh: 15%; TRPV1 PAM: -30; gsp ag: -11%; CtBP-E1A blk: 8; gsp antag: 8%[15.4 µM]

What do the screens show for `CCn1c(SCC(=O)Nc2ccccc2)nc2c(c1=O)SCC2`?
ClpP mod: -5.2%; gsp ag: -22%; CtBP-E1A blk: -3

How did Cc1cc(OCC(=O)N2CCN(c3ccc(F)cc3)CC2)c2c(C)cc(=O)oc2c1 do in these assays?
ClpP mod: -2.0%; Menin-MLL FL inh: 3.1; Sfp inh: 2%; TRPV1 PAM: 4; gsp ag: -111%[inhibitor]; gsp antag: 5%

What do the screens show for `CCOc1cc(/C=C/C(=O)OCC(=O)NC2CCS(=O)(=O)C2)ccc1OCc1ccccc1` (configuration not stated)?
Menin-MLL FL inh: -1.7; Sfp inh: -34%; TRPV1 PAM: inconclusive; gsp ag: 19%[15.4 µM]; CtBP-E1A blk: 0

Results for CCCCSc1nnc(-c2ccc(C)cc2)o1 ?
ClpP mod: -8.6%; Menin-MLL FL inh: 2.5; Sfp inh: -5%; TRPV1 PAM: -15; gsp ag: 26%; CtBP-E1A blk: 37; gsp antag: -3%

How did COc1ccc(-c2noc(CN3CCOCC3)n2)cc1OC do in these assays?
ClpP mod: -2.4%; Menin-MLL FL inh: 3.1; Sfp inh: 2%; TRPV1 PAM: -2; gsp ag: -26%; CtBP-E1A blk: 0; gsp antag: -4%

How did COc1cc(NS(=O)(=O)c2ccc(C)cc2)c2c(c1N)C(=O)c1ccccc1C2=O do in these assays?
ClpP mod: 2.0%; gsp ag: -30%; CtBP-E1A blk: 2

Results for COc1ccc(CCNC(=O)COC(=O)CSc2ccc([N+](=O)[O-])cc2)cc1OC ?
ClpP mod: 0.7%; TRPV1 PAM: -9; gsp ag: 6%; CtBP-E1A blk: -4; gsp antag: -13%

What do the screens show for `Cc1[nH]c(=O)[nH]c(=O)c1NC(=O)c1ccc(OC(C)C)cc1`?
Menin-MLL FL inh: -1.1; Sfp inh: 20%; TRPV1 PAM: -6; gsp ag: 5%[15.4 µM]; CtBP-E1A blk: -8; gsp antag: 17%

How did COc1ccc(Br)cc1CN(C)CC(=O)NCc1ccc(F)cc1 do in these assays?
ClpP mod: 1.9%; Menin-MLL FL inh: -12; Sfp inh: 79µM*; TRPV1 PAM: -6; gsp ag: -12%[15.4 µM]; CtBP-E1A blk: -3; gsp antag: 1%

Results for O=[N+]([O-])c1ccc(C(O)CN2CCOCC2)cc1 (configuration not stated) ?
Menin-MLL FL inh: 0.7; Sfp inh: -3%; TRPV1 PAM: 3; gsp ag: 9%[15.4 µM]; CtBP-E1A blk: -5; gsp antag: 7%

How did CCc1cc2c(Nc3ccccc3O)nc(C)nc2s1 do in these assays?
ClpP mod: -2.0%; Menin-MLL FL inh: 1.4; Sfp inh: -9%; TRPV1 PAM: -13; gsp ag: 12%[15.4 µM]; CtBP-E1A blk: 0; gsp antag: -9%

How did CC(=O)Nc1ccc(Nc2ncnc3ccccc23)cc1 do in these assays?
Menin-MLL FL inh: 6.5; Sfp inh: 7%; TRPV1 PAM: 2

How did N#CNC(N)=Nc1cccc(Cl)c1 do in these assays?
ClpP mod: 0.4%; Menin-MLL FL inh: 3.2; Sfp inh: 15%; TRPV1 PAM: 4; gsp ag: -7%; CtBP-E1A blk: -12; gsp antag: -5%

Results for Cc1cccc(OCCCC(=O)NC2CCCCC2)c1 ?
ClpP mod: 1.0%; Menin-MLL FL inh: -5.8; Sfp inh: 2%; TRPV1 PAM: -27; gsp ag: -3%[15.4 µM]; CtBP-E1A blk: 9; gsp antag: 0%
